E coli growth – E. coli growth inhibition, primary screen, OD600. OD600 absorbance (test concentration not listed). 330,000 compounds, 0.21% hits. Escherichia coli growth, 23 h; stronger effect = lower value. AID 1053175, 2014;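 active means OD600 absorbance below the run mean of sample wells minus 3.6 SD, in any replicate, cut at about 0.56 in these data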;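 further: stock transfer was 300 nL into about 60 µL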
HNF4A DNA FP – change in binding of human HNF4A to DNA, primary screen, biochemical, fluorescence polarization, FITC-DNA | Hepatocyte nuclear factor 4-alpha (Homo sapiens), P41235 | 1 h | activity change, % at 10 µM | 360,000 compounds, 0.3% hits; in the data active means activity change above about 30%, passing the limit was not always enough;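 further: controls were the assay level and a saturating level of protein; the project sought stronger binding though the title names inhibitors; some compounds called inactive have numbers as strong as hits; positive values seem to mean higher polarization but the record does not say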
B2AR ag – beta2AR agonists driving receptor internalization, primary screen, cell-based, FAP fluorogen, flow cytometry. Beta-2 adrenergic receptor (Homo sapiens), P07550. Am2.2-beta2AR cells; reference of the scale not given here. response, % (no concentration beside the values). 340,000 compounds, 0.43% hits. AID 504454, 2011;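 active means response above a set limit, near 3 SD of response in nonfluorescent compounds, cut at about 42% in these data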;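 further: stock transfer was 100 nL into about 11 µL; a reference agonist was the positive control; negative values mostly stem from fluorescent compounds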
LANA-H2B inh – blockers of LANA interaction with H2A/H2B – biochemical, FP readout, HTS, primary screen | Protein LANA1 (Human herpesvirus 8 type P (isolate GK18)), Q9QR71 | inhibition, % (no concentration beside the values) | cell-free LANA-H2A/H2B peptide, fluorescence polarization | AID 2629, 2010 | 320,000 compounds, 0.6% hits; in the data active means inhibition mostly above about 10%, no sharp cut-off; inactive means mostly below about 6.7%;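 further: stock transfer was 7.5 nL into about 10 µL; 0% = median of vehicle wells and 100% = median of positive control wells; one replicate is shown; the record names a cut of 25% in any replicate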
FGF22 binding – binders of human FGF22 protein, primary screen, FGF22 synaptogenesis inhibitor project, biophysical, thermal shift, single point | recombinant FGF22 thermal shift, SYPRO orange fluorescence; percent of sucrose octasulfate shift, DMSO zero | Fibroblast growth factor 22 (Homo sapiens), Q9HCT0 | calls only at 9.99 µM | 340,000 compounds, 1.5% hits | AID 651658, 2012;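 active means melting point raised past a set limit in the mean and every replicate; inconclusive means no clear call; three in four hits are not shown here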
Target sequence (Q9HCT0 whole entry, looked up): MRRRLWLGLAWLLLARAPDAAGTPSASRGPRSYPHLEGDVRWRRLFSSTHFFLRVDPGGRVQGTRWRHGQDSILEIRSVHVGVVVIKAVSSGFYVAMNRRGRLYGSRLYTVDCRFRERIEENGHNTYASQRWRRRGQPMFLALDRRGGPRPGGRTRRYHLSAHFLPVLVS
UCH37 DUB inh – inhibitors of human UCH37 deubiquitinase, primary screen, biochemical, Ub-AMC cleavage, fluorescence; Ubiquitin carboxyl-terminal hydrolase isozyme L5 (Homo sapiens), Q9Y5K5; 330,000 compounds, 0.33% hits; AID 588478, 2011; inhibition, % (concentration not given with the values); purified proteasome/UCH37;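 active means mean of two replicates above 20%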;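 further: 0% = compound-free wells with enzyme and 100% = wells lacking proteasome; stock transfer was 100 nL into about 20 µL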
Target sequence (Q9Y5K5 whole entry, looked up): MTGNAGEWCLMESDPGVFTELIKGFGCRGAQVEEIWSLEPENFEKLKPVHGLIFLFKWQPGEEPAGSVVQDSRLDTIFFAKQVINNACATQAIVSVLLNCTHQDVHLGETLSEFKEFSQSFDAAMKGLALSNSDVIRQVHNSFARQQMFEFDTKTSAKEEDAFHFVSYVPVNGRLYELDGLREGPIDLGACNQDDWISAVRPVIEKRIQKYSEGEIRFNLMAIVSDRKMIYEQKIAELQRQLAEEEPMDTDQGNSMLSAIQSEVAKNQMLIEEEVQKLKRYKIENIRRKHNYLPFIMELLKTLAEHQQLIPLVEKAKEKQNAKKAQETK
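Material: Human UCH37 enzyme supplied as purified proteasome complex | Schedule: 30 min compound-proteasome preincubation then 25 min substrate reaction, room temperature | Detection: AMC fluorescence from Ub-AMC cleavage, excitation 355 nm, emission 460 nm | Benchmarks: Wells without proteasome as full block, compound-free enzyme plus substrate as uninhibited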
ALR H2O2 inh – inhibitors of human ALR sulfhydryl oxidase, primary screen, biochemical, H2O2 detection, HRP-luminol luminescence, single point. inhibition, % (concentration not given with the values). purified ALR, DTT oxidation. 290,000 compounds, 3.8% hits;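 active means mean and each replicate at 75% or more; inconclusive means only one of the two met; inactive means neither met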;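 further: stock transfer was 7.5 nL into about 7.5 µL; 0% = neutral wells and 100% = wells with inactivated enzyme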
Target sequence (P55789 whole entry, looked up): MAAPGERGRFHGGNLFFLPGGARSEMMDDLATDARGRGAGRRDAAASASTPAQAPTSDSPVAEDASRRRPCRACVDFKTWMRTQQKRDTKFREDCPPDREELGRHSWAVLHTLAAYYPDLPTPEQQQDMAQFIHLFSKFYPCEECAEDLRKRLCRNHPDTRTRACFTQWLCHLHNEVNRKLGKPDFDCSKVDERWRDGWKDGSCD
Starred values were filed as active, the others as inactive; i = inactive; ? = inconclusive; / = not tested or not shown; & = joins results of further samples. These rows are one share of the data (hit frequency here may not be typical).

smiles | E coli growth | HNF4A DNA FP | B2AR ag | LANA-H2B inh | FGF22 binding | UCH37 DUB inh | ALR H2O2 inh
COc1ccc(NS(=O)(=O)c2cccc(C(=O)N(C)CC(=O)Nc3ccc(C)cc3)c2)cc1 | 0.65 | -3.1 | 3 | -2.5 | i | 4.6 | -3
O=C(c1cc2c(s1)CCC2)N1CCN(c2ccccc2)CC1 | 0.7 | -4.3 | -4 | 6.1 | / | 0.0 | 63
CCc1cccc(CC)c1-n1c(SCc2cc(=O)n3ccsc3n2)nnc1-c1cccnc1 | 0.62 | 6.4 | 19 | 1.0 | / | 1.6 | -3
OCCCCNCc1ccc(OCc2ccc(Cl)cc2)cc1 | 0.66 | 2.8 | 19 | -2.7 | i | 2.1 | -9
CCN(CC(=O)NC(=O)NC1CCCCC1)Cc1nc2ccccc2c(=O)[nH]1 | 0.76 | 2.4 | 4 | -3.1 | / | 0.0 | -3
COc1cc(C(=O)n2nc(C)cc2C)cc(OC)c1OC | 0.74 | -3.5 | -6 | -2.1 | / | 4.4 | -18
O=C(c1ccc(F)cc1)N1CCC(n2nnc3ccccc32)CC1 | 0.69 | 2.7 | -4 | -1.8 | i | 2.3 | 1
Cc1ccc(S(=O)(=O)N2C(=O)CCC2C(=O)O/N=C(\N)c2cccc([N+](=O)[O-])c2)cc1 (centres undefined) | 0.75 | 0.3 | 10 | 0.5 | i | 1.0 | -2
COc1ccc(C)cc1NC(=O)C1CCCN(S(=O)(=O)c2cccc3cccnc23)C1 (centres undefined) | 0.76 | 2.6 | -2 | 5.8 | / | 4.6 | 4
C=CCN(c1ccc(C(=O)NCCc2ccccc2)cc1)S(C)(=O)=O | 0.68 | 2.2 | 5 | / | / | 0.5 | /
CCn1c(CC(=O)Nc2ccc(F)cc2)nnc1SCC(=O)Nc1nnc(C)s1 | 0.73 | -0.8 | 5 | 0.2 | i | 6.3 | 1
C=CCN1C(=O)CN=C1Nc1ccc(OC)cc1OC | 0.69 | -2.0 | 6 | 3.5 | / | -0.2 | -10
COCCN1Cc2cccc(C(=O)Nc3ccc4c(c3)OCCO4)c2C1=O | 0.75 | 3.8 | -16 | -7.8 | i | 1.4 | -5
COc1ccc(CCNC2=NCCS2)cc1 | 0.71 | -1.4 | -1 | 1.5 | / | 1.2 | -4
COc1ccc2cc(C(=O)N/N=C/c3cc(OC)c(OC)c(OC)c3)[nH]c2c1 | / | 1.8 | 10 | 0.5 | i | / | 6
CCCC(=O)C1=C(O)C(C(=O)OC)C(C)(C)CC1=NC(C)(C)C (centres undefined) | 0.68 | -5.5 | 0 | 4.4 | / | 6.2 | -6
Cc1cc(C)nc(CCNC(=O)CC2C(=O)NCCN2Cc2ccc(F)cc2Cl)n1 (centres undefined) | 0.63 | 2.1 | 1 | -0.4 | i | -5.8 | 1
Oc1ccc(Cl)cc1C1=NNC(c2cc(Br)cc3c2OCOC3)C1 (centres undefined) | 0.66 | 17 | -5 | 0.9 | i | -11 | -3
Cc1cccc(-n2c(Cc3cc(=O)[nH]c(=O)[nH]3)nnc2SCC(=O)Nc2cccc(C(F)(F)F)c2)c1 | 0.72 | 5.2 | 4 | 5.1 | i | -1.0 | -9
O=C(CCNC(=O)Cn1ccc2ccccc2c1=O)NCCN1CCN(c2cccc(Cl)c2)CC1 | 0.68 | 1.4 | 0 | 2.9 | / | 3.0 | 9
O=[N+]([O-])c1ccc(COc2ncnc3ccccc23)cc1 | 0.71 | 1.8 | -6 | -1.4 | / | 0.2 | -3
COc1ccc(-n2c(=S)[nH]c3cc(C(=O)NCc4ccco4)ccc3c2=O)cc1OC | 0.67&0.81 | -3.1&-1.2 | -1&2 | 2.1 | i | 3.3&5.9 | 5
CC(=O)N1CCc2c(sc(NC(=O)CCS(=O)(=O)c3ccc(C)cc3)c2C(N)=O)C1 | 0.68 | -0.9 | -3 | 5.8 | i | 2.8 | -33
COc1ccccc1N(C(=O)c1snc(C(N)=O)c1N)C(C(=O)NC1CCCC1)c1ccco1 (centres undefined) | 0.72 | -0.8 | 1 | 3.9 | / | -133 | /
Cn1c(NC(=O)C(C)(C)Oc2ccc(Cl)cc2)cc(=O)n(C)c1=O | 0.67 | -2.3 | 0 | -4.8 | i | 4.5 | 0
CC(C)Oc1ccc(C(=O)Nc2ccc(NC(=O)c3ccco3)c(Cl)c2)cc1 | 0.73 | 4.2 | -4 | -1.7 | / | -3.0 | -10
COc1ccc(C)cc1NC(=O)NC(C)c1ccc2c(c1)OCO2 (centres undefined) | 0.72 | 0.4 | 1 | 2.3 | i | 5.6 | -5
C=CCNC(=S)NNC(=O)c1cccc2ccccc12 | 0.7 | -1.9 | -12 | 4.6 | / | -0.4 | 22
CC(=O)N1CCN(CC(c2ccccc2)c2ccccc2)CC1 | 0.67 | -4.1 | -4 | 0.6 | i | -1.4 | -1
O=C(CSC(=S)N1CCOCC1)N1N=CCC1c1ccccc1 (centres undefined) | 0.72 | 0.0 | 4 | 2.0 | / | 2.5 | -7
CC(C)CCNc1ncnc2c1nnn2Cc1ccccc1Cl | 0.66 | 3.1 | -8 | -6.6 | / | 0.0 | -5
C=C(C)COc1ccc(-c2nc(N)ncc2Oc2ccccc2OC)c(O)c1 | 0.79 | 3.1 | 0 | -0.1 | / | 1.9 | -2
CCOC(=O)/C(C#N)=C/c1cccc([N+](=O)[O-])c1 | 0.67 | 2.1 | 11 | -11 | i | 2.1 | -3
Cc1ccccc1-n1c(SCC(=O)Nc2ccccc2Cl)nc2n[nH]c(C)c2c1=N | 0.67 | 0.4 | -3 | 0.6 | i | -0.1 | -3
CCOC(=O)CNS(=O)(=O)c1ccc2c3c(cccc13)C(=O)N2CC | 0.71 | -0.2 | 23 | 8.3 | i | 5.5 | -26
COc1ccc(-n2c(=O)c(CCC(=O)N3CCN(c4ccccc4O)CC3)nc3ccccc32)cc1 | 0.68 | -1.3 | 16 | -1.3 | i | 1.0 | 6
COC(=O)c1ccc(C(=S)NCC2(N(C)C)CCCCC2)cc1 | 0.68 | 0.0 | 6 | -2.3 | i | 3.8 | -28
COc1ccc2cc(/C=C/C(=O)c3ccco3)c(Cl)nc2c1 | 0.72 | / | / | -1.7 | / | -7.8 | ?
CC(c1ccccc1)N(C)C(=O)CN1CCN(S(=O)(=O)c2ccc3c(c2)OCCCO3)CC1 (centres undefined) | 0.73 | -4.0 | 4 | 1.5 | i | 0.4 | -8
CC(C)(Oc1ccc(CCNC(=O)c2ccc(-c3ccc(Cl)cc3)o2)cc1)C(=O)O | 0.69 | -0.2 | -10 | -7.3 | i | 3.3 | 56
O=S(=O)(c1ccc(Br)cc1)N1CCN(Cc2ccco2)CC1 | 0.71 | 0.4 | 4 | 0.1 | i | 0.0 | -2
COC(=O)c1c(-c2ccccc2)noc1C | 0.69 | 2.2 | -4 | 2.2 | i | 0.1 | -13
CCN(C[C@H]1N[C@@](CC)(C(=O)OC)[C@H]2C(=O)N(C)C(=O)[C@@H]12)C(=O)Nc1ccc(C)cc1 | 0.68 | -0.7 | -7 | 5.0 | i | 2.5 | /
Cn1c(SCC(=O)NC(C)(C)C)nnc1-c1ccc(C(C)(C)C)cc1 | 0.71 | 4.2 | -10 | -6.7 | / | 1.2 | -7
Cc1ccc(-c2noc(CCC(=O)N3CCN(c4cccc(C(F)(F)F)c4)CC3)n2)cc1 | 0.78 | 2.3 | -9 | -6.8 | / | 7.5 | -5
O=C(Nc1cccc2ccccc12)/C(=C/c1ccc([N+](=O)[O-])cc1)NC(=O)c1ccccc1 | 0.74 | 0.5 | 2 | 3.5 | / | 6.3 | /
COc1cc(C(CC(=O)Nc2ccc(Cl)cn2)N2Cc3ccccc3C2=O)cc(OC)c1OC (centres undefined) | 0.69 | -1.3 | -13 | -1.3 | i | 0.8 | -8
CCN1CCN(Cc2nc3c(c(=O)n(C)c(=O)n3C)n2Cc2cccc3ccccc23)CC1 | 0.71 | 4.0 | -9 | 1.3 | i | 4.9 | -15
O=C(CN1C(=O)c2ccccc2S1(=O)=O)N1CCN(Cc2ccc3c(c2)OCO3)CC1 | 0.67 | -1.6 | 1 | 7.5 | / | 0.8 | -3
C=CCNc1ccccc1S(=O)(=O)NCc1ccccc1 | 0.69 | -1.1 | 0 | / | i | -2.1 | /
COc1ccc(NC(=O)Cn2nnc(C(=O)NCc3cccs3)c2N)cc1 | 0.71 | -1.6 | 6 | -1.5 | i | 0.5 | -7
COC(=O)c1ccc(NC2=C(Cl)C(=O)OC2OC(=O)c2ccccc2)cc1 (centres undefined) | 0.71 | 1.3 | -1 | 0.7 | i | -0.4 | 97*
O=C(CN1C(=O)NC2(CCCCC2)C1=O)N1CCN(S(=O)(=O)c2cccc([N+](=O)[O-])c2)CC1 | 0.71 | -0.9 | -2 | -6.8 | / | 4.5 | -8
CSc1nc2ccc(NC(=O)C3CC(=O)N(Cc4ccccc4)C3)cc2s1 (centres undefined) | 0.7 | 4.9 | -5 | -0.6 | / | 3.4 | -15
COc1ccc(/C=N/NS(=O)(=O)c2ccccc2)cc1OS(=O)(=O)c1ccccc1 | / | -2.1 | 10 | 1.2 | / | / | /
O=C(NCCCn1ccnc1)c1ccncc1 | 0.7 | -0.2 | -1 | -3.2 | / | 0.7 | -2
CCCC(=O)Nc1nnc(-c2ccc3c(c2)OCO3)s1 | 0.64 | 1.9 | 0 | -0.3 | i | -42 | 4
CCOC(=O)N1CCC(NC(=O)CSc2cc(=O)n(C)c3ccccc23)CC1 | 0.72 | 0.9 | -8 | 2.7 | / | -2.2 | /
O=S(=O)(Nc1ccc(O)c(NS(=O)(=O)c2ccccc2)c1)c1ccccc1 | 0.67 | -3.2 | -2 | -1.9 | i | 7.7 | 87*
CC(C)NC(=S)N1CCN(C/C=C/c2ccccc2)CC1 | 0.64 | 2.3 | 0 | 0.7 | / | 4.5 | -21

The listing continues:
smiles | E coli growth | HNF4A DNA FP | B2AR ag | LANA-H2B inh | FGF22 binding | UCH37 DUB inh | ALR H2O2 inh
O=C(Nc1ccc(C(=O)N2CCCC2)cc1)c1ccccc1Br | 0.71 | 1.6 | 1 | 0.8 | i | 3.9 | 20
COc1ccc(/C=N/NC(=O)CSCc2ccc([N+](=O)[O-])cc2)cc1OC | / | 0.9 | 5 | -0.4 | / | / | 16
COc1ccc(-c2nnn(CC(=O)N(CCN3CCOCC3)C(C(=O)NC3CCCCC3)c3ccco3)n2)cc1 (centres undefined) | 0.72 | -0.1 | -5 | -2.8 | i | 4.6 | -5
COCCNC(=O)CCn1nc(-c2ccc(C)cc2)c2ccccc2c1=O | 0.69 | -1.3 | 1 | -1.7 | i | 2.3 | -10
CCn1nc(C(=O)OCC(=O)N2CCc3ccccc32)c2ccccc2c1=O | 0.68 | 0.9 | -12 | 4.6 | / | 1.4 | /
COC(=O)C1=C(C)N(Cc2ccccc2)C(=NCc2cc(OC)c(OC)c(OC)c2)N[C@H]1c1ccc(Br)cc1 | / | -0.4 | 28 | -0.1 | / | 1.2 | -32
